Screens from PubChem BioAssay.
MLL AF4-AF9 inh: MLL-AF4/AF9 protein interaction inhibition. P42568. AlphaScreen, biotin-AF4 peptide binding to FLAG-AF9. inhibition, % at 10 µM. 350,000 compounds, 0.47% hits;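 active means every replicate reaching a set inhibition limit, whatever the replicate mean, cut at about 25% in these data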;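 further: 0% = plate neutral control median and 100% = total signal loss; the record names both 10 and 1 µM as test concentration; the first replicate is given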
Target sequence (P42568 whole entry, looked up): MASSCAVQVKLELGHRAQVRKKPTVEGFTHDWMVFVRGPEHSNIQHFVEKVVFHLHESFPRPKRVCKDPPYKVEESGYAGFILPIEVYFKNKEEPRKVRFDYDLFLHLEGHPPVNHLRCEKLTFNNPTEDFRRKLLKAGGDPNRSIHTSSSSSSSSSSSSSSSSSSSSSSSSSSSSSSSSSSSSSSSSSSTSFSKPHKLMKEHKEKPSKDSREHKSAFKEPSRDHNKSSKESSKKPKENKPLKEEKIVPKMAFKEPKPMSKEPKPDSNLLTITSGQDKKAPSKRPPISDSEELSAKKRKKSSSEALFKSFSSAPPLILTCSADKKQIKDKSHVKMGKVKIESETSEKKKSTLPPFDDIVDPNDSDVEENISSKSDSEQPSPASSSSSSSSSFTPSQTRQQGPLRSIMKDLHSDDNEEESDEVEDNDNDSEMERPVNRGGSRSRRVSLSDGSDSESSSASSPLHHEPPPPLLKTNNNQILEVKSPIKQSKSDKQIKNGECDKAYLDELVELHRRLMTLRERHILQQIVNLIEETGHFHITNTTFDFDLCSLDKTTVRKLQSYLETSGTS
FGF22 binding: binders of recombinant human FGF22 by thermal shift | Q9HCT0 | SYPRO orange fluorescence; percent of sucrose octasulfate shift, DMSO zero | calls only at 9.99 µM | 340,000 compounds, 1.5% hits | AID 651658;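 active means melting point raised past a set limit in the mean and every replicate; three in four hits are not shown here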
Target sequence (Q9HCT0 whole entry, looked up): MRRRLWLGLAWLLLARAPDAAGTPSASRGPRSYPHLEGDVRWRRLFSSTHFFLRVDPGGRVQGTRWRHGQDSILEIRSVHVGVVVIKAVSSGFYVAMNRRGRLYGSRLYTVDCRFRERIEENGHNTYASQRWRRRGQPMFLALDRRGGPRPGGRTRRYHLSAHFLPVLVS
rRNA inh HTS: inhibitors of bacterial rRNA selective over humanized ribosomes; E. coli WT GFP vs humanized-ribosome RFP mutants, fluorescence, 24 h; hits give low values; DMSO median 0, no signal -100; 350,000 compounds, 1.6% hits; GFP signal change (wild-type ribosome), % (concentration not given with the values);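 active means significant combined selectivity score with lowered wild-type GFP, culture density cut under 30%, mutant RFP and density less affected; inactive means any of these conditions unmet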; further: one replicate is shown; some compounds called inactive have numbers as strong as hits
rRNA inh HTS OD600: second read-out of rRNA inh HTS, no call of its own (marks repeat the call); OD600 change, %; measured here: OD600 growth;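 optical density of the mix in the first replicate; 0 = DMSO median and -100 = no signal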
rRNA inh HTS RFP: second read-out of rRNA inh HTS, no call of its own (marks repeat the call); RFP signal change, %; measured here: RFP humanized mutant strains;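 first replicate; 0 = DMSO median and -100 = no signal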
The depositor's hits bear a star; i = inactive. Some of the compounds tested. The share of hits here may be higher or lower than overall.

Assay codes – A = MLL AF4-AF9 inh; B = FGF22 binding; C = rRNA inh HTS; D = rRNA inh HTS OD600; E = rRNA inh HTS RFP
1	C[C@@H]1CN([C@@H](C)CO)C(=O)c2cc(NC(=O)Nc3ccc(F)cc3)ccc2O[C@H]1CN(C)S(=O)(=O)c1ccc(F)cc1
  A: 5.8	B: i	C: -4	D: -20	E: 7.0
2	CCOC(=O)C1=CCN(S(=O)(=O)c2ccccc2C)C1c1cccc(F)c1 (stereo not given)
  A: -2.5	B: i	C: -10	D: -40	E: -9.5
3	C[C@H](CO)N1C[C@H](C)[C@@H](CN(C)C)OCCCC[C@H](C)Oc2ccc(NC(=O)NC3CCCCC3)cc2C1=O
  A: -7.0	B: i	C: 6	D: 5	E: -0.8
4	C/C=C/c1cnc2c(c1)C(=O)N([C@@H](C)CO)C[C@H](C)[C@@H](CN(C)C(=O)C1CCOCC1)O2
  A: -2.6	B: i	C: 2	D: 9	E: -2.6
5	C[C@@H]1CN([C@@H](C)CO)C(=O)Cc2cc(NS(=O)(=O)c3ccc(F)cc3)ccc2O[C@H]1CN(C)Cc1ccc(Oc2ccccc2)cc1
  A: 1.7	B: i	C: 1	D: 1	E: 5.4
6	CCCN(C)C[C@@H]1Oc2ncc(C#CC3CCCCC3)cc2C(=O)N([C@@H](C)CO)C[C@H]1C
  A: 11	B: i	C: 5	D: 5	E: 1.0
7	CC(=O)NC(c1cccc(F)c1)c1nc(-c2ccc(N(C)C)cc2)cs1 (stereo not given)
  A: -2.1	B: i	C: 0	D: 3	E: 0.7
8	O=c1[nH][nH]c2c1[C@@H](c1ccc(F)cc1)O[C@H](CCOCc1ccccc1)C2
  A: 0.5	B: i	C: 5	D: -7	E: -1.3
9	COc1ccc2c3c([nH]c2c1)[C@H](CO)N(C(=O)c1cnccn1)CC31CCN(S(C)(=O)=O)CC1
  A: -4.1	B: i	C: 3	D: 4	E: -1.6
10	COc1ccc(NC(=O)CN(C)C(=O)C(NC(=O)c2ccco2)C(C)C)cc1 (stereo not given)
  A: 0.0	B: i	C: 13	D: 11	E: 2.7
11	C[C@@H]1CN([C@H](C)CO)S(=O)(=O)c2ccc(C#CC3CCCC3)cc2O[C@@H]1CN(C)CC1CC1
  A: 12	B: i	C: 0	D: -21	E: 22
12	CCCN(C)C[C@H]1OCCCC[C@@H](C)Oc2ccc(NC(=O)Nc3ccc(C(F)(F)F)cc3)cc2C(=O)N([C@@H](C)CO)C[C@H]1C
  A: -8.3	B: i	C: 1	D: -13	E: 8.3
13	CN(C)c1ccc(C(=O)C=Cc2ccc([N+](=O)[O-])cc2)cc1
  A: 0.6	B: i	C: -6	D: -2	E: -3.9
14	C[C@H](CO)N1C[C@H](C)[C@@H](CN(C)S(C)(=O)=O)Oc2ncc(C#CCN(C)C)cc2C1=O
  A: -0.3	B: i	C: 6	D: 7	E: -3.0
15	C[C@@H]1CN([C@@H](C)CO)C(=O)Cc2cc(NC(=O)CCCCCC(=O)Nc3ccccc3N)ccc2O[C@@H]1CN(C)S(=O)(=O)c1cn(C)cn1
  A: 3.4	B: i	C: 2	D: 4	E: -0.2
16	C/C=C/c1ccc2c(c1)O[C@@H](CN(C)Cc1cncnc1)[C@@H](C)CN([C@@H](C)CO)S2(=O)=O
  A: -1.1	B: i	C: 3	D: 8	E: 0.9
17	O=c1[nH][nH]c2c1[C@H](c1ccc(Cl)cc1)O[C@H](C1CCCC1)C2
  A: 0.6	B: i	C: -10	D: -21	E: -4.0
18	CCOC(=O)[C@]12CCC=C1N(Cc1ccccc1)C(=O)[C@H](CC(=O)NCc1cccs1)C2
  A: 1.7	B: i	C: -15	D: -9	E: 1.1
19	C/C=C/c1ccc2c(c1)O[C@H](CN(C)C(=O)Nc1ccc(OC)cc1)[C@H](C)CN([C@@H](C)CO)S2(=O)=O
  A: 3.1	B: i	C: -2	D: -1	E: 0.2
20	CC(C)NC(=O)N(C)C[C@@H]1Oc2ccc(N(C)C)cc2C(=O)N([C@H](C)CO)C[C@@H]1C
  A: -1.2	B: i	C: 1	D: 12	E: 2.4
21	C[C@H](CO)N1C[C@H](C)[C@@H](CN(C)C(=O)c2ccccc2)Oc2ncc(C#C[C@@H](C)O)cc2C1=O
  A: 1.6	B: i	C: 0	D: 8	E: -1.7
22	COc1cccc2c(=O)c3c(oc12)CCCC3
  A: 3.5	B: i	C: -8	D: -14	E: 2.5
23	C[C@H](CO)N1C[C@H](C)[C@@H](CN(C)C(=O)c2ccc3c(c2)OCO3)Oc2cc(-c3ccncc3)ccc2S1(=O)=O
  A: 1.7	B: i	C: -2	D: -7	E: -3.6
24	COc1cccc(-c2ccc3c(c2)[C@H]2[C@H](CCN2S(=O)(=O)c2ccccc2C)[C@@H](CO)N3)c1
  A: 16	B: i	C: 0	D: -3	E: 7.7
25	C[C@H](CO)N1C[C@H](C)[C@H](CN(C)C(=O)Nc2ccccc2)Oc2ccc(NC(=O)CCN3CCOCC3)cc2C1=O
  A: -0.7	B: i	C: 4	D: 9	E: -0.6
26	CCc1ccccc1Oc1nc(NCc2ccccc2)nc2ccsc12
  A: -1.0	B: i	C: 8	D: 14	E: 3.5
27	C[C@@H]1CN([C@H](C)CO)S(=O)(=O)c2ccc(C#CC3CCCC3)cc2O[C@@H]1CN(C)Cc1cccnc1
  A: 15	B: i	C: -29	D: -26	E: 30
28	COCCNC(=O)C1(C)CCCN(Cc2ccc(-n3ccnc3)cc2)C1 (stereo not given)
  A: -4.4	B: i	C: 8	D: 6	E: 0.2
29	O=C(Nc1nccs1)[C@H]1[C@H](CO)[C@H]2Cn3c(cccc3=O)[C@H]2N1C(=O)C1CCCCC1
  A: -4.1	B: i	C: 2	D: 5	E: 0.4
30	CN(C)CC(=O)N1CCCCN2[C@H](CO)[C@H](c3ccc(/C=C/c4ccccc4)cc3)[C@@H]2C1
  A: -1.7	B: i	C: 2	D: -1	E: 1.8
31	C[C@@H]1CN([C@@H](C)CO)C(=O)c2cc(NC(=O)Nc3cccc4ccccc34)ccc2O[C@@H](C)CCCCO[C@H]1CN(C)C(=O)Nc1cccc2ccccc12
  A: -4.1	B: i	C: 3	D: 3	E: 2.9
32	CCN1C(=O)[C@H]2[C@@H](c3ccc(C)cc3)N[C@]3(CCCN(Cc4ccc(C(F)(F)F)cc4)C3=O)[C@H]2C1=O
  A: 2.9	B: i	C: -7	D: -9	E: -3.4
33	C[C@H](CO)N1C[C@H](C)[C@@H](CN(C)S(=O)(=O)c2cn(C)cn2)Oc2ccc(NC(=O)NC3CCCCC3)cc2CC1=O
  A: -8.5	B: i	C: 5	D: 1	E: -0.8
34	O=C(C[C@H]1C[C@H]2c3cc(NC(=O)Nc4ccccc4F)ccc3O[C@H]2[C@@H](CO)O1)NCc1ccccn1
  A: 0.0	B: i	C: -3	D: -5	E: -2.1
35	O=C(NC1CCCCC1)C(c1cc2ccccc2o1)N1CCOCC1 (stereo not given)
  A: -6.2	B: i	C: -6	D: -3	E: -11
36	CN1C(=O)c2cc(NC(=O)C3CC3)ccc2OC[C@@H]2O[C@@H](CC(=O)NCCc3ccncc3)CC[C@H]21
  A: -14	B: i	C: 0	D: 4	E: -0.5

Sorted by value in MLL AF4-AF9 inh (low to high): three from the list above.
Assay codes – A = MLL AF4-AF9 inh; B = FGF22 binding; C = rRNA inh HTS; D = rRNA inh HTS OD600; E = rRNA inh HTS RFP
33	C[C@H](CO)N1C[C@H](C)[C@@H](CN(C)S(=O)(=O)c2cn(C)cn2)Oc2ccc(NC(=O)NC3CCCCC3)cc2CC1=O
  A: -8.5	B: i	C: 5	D: 1	E: -0.8
35	O=C(NC1CCCCC1)C(c1cc2ccccc2o1)N1CCOCC1 (stereo not given)
  A: -6.2	B: i	C: -6	D: -3	E: -11
34	O=C(C[C@H]1C[C@H]2c3cc(NC(=O)Nc4ccccc4F)ccc3O[C@H]2[C@@H](CO)O1)NCc1ccccn1
  A: 0.0	B: i	C: -3	D: -5	E: -2.1

Looked up above:
rRNA inh HTS RFP result of COc1ccc2c3c([nH]c2c1)[C@H](CO)N(C(=O)c1cnccn1)CC31CCN(S(C)(=O)=O)CC1 reads -1.6
rRNA inh HTS RFP result of C[C@H](CO)N1C[C@H](C)[C@H](CN(C)C(=O)Nc2ccccc2)Oc2ccc(NC(=O)CCN3CCOCC3)cc2C1=O reads -0.6
rRNA inh HTS OD600 result of CCOC(=O)C1=CCN(S(=O)(=O)c2ccccc2C)C1c1cccc(F)c1 (stereo not given) reads -40
rRNA inh HTS result of C[C@@H]1CN([C@H](C)CO)S(=O)(=O)c2ccc(C#CC3CCCC3)cc2O[C@@H]1CN(C)Cc1cccnc1 reads -29
MLL AF4-AF9 inh result of COCCNC(=O)C1(C)CCCN(Cc2ccc(-n3ccnc3)cc2)C1 (stereo not given) reads -4.4
rRNA inh HTS OD600 result of C[C@H](CO)N1C[C@H](C)[C@@H](CN(C)C(=O)c2ccccc2)Oc2ncc(C#C[C@@H](C)O)cc2C1=O reads 8
